Bead autofluor: flagged as autofluorescent in microsphere protease counterscreen; compound autofluorescence counterscreen, microsphere flow cytometry; stronger effect = higher value; fluorescence intensity (concentration not given with the values); 3.1% of 360,000 active;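 active means at least 3 SD above the mean of all compounds, about 16000 in these data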;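 further: 100 nL of 1 mM stock went into each well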
Active calls of the source: *.

How did Cc1cc(C)n2c(Nc3c(C)cccc3C)c(CC(C)C)nc2n1 do in these assays?
Bead autofluor: 4480

Results for OC(c1ccc(Cl)cc1)c1ncc(-c2cccc(C(F)(F)F)c2)[nH]1 (centres undefined) ?
Bead autofluor: 3642

Results for COc1ccc(S(=O)(=O)N2CCN(Cc3ccccc3OC)CC2)cc1 ?
Bead autofluor: 4120

What do the screens show for `C#CCNC(=O)C[C@@H]1C[C@@]2(C(=O)OC)CCCCC=C2N(Cc2ccccc2)C1=O`?
Bead autofluor: 6239

What do the screens show for `CCNC(=O)c1cc2c(c(-c3cccc(-c4cccnc4)c3)n1)[C@H](CCO)N(S(C)(=O)=O)C2`?
Bead autofluor: 5772

Results for CC(=O)c1cccc(NC(=O)c2cccc3c(-c4cccc(C(N)=O)c4)coc23)c1 ?
Bead autofluor: 3904

Results for CC(C)NC(=O)Nc1ccc2c(c1)C(=O)N([C@H](C)CO)C[C@H](C)[C@@H](CN(C)Cc1ccc(C(F)(F)F)cc1)OCCCC[C@H](C)O2 ?
Bead autofluor: 4504

How did CC(C)C1C(=O)N(Cc2cn(CCC3OCCO3)nn2)CCS(=O)(=O)N1Cc1ccc(-c2ccccc2C(F)(F)F)cc1 (centres undefined) do in these assays?
Bead autofluor: 5850

How did CCCN(C)C1CN(Cc2cn(Cc3ccccc3)nn2)S(=O)(=O)C1 (centres undefined) do in these assays?
Bead autofluor: 5735

How did CCC/C=C/c1ccc(CN2C(C(C)C)C(=O)N(Cc3cn(Cc4ccco4)nn3)CCS2(=O)=O)cc1 (centres undefined) do in these assays?
Bead autofluor: 3741

What do the screens show for `CCc1nc2c(OCc3cccc(Cl)c3)cccn2c1N(C)C(=O)Nc1ccccc1OC`?
Bead autofluor: 2944

How did CC(=O)Nc1ccc(-c2ccnc3c2CC(C)(C(=O)NCC2CC2)O3)cc1 (centres undefined) do in these assays?
Bead autofluor: 3930

How did COc1ccc(C(=O)N2CCCCC2c2cc(C(=O)NCc3ccc(F)cc3)no2)cc1 (centres undefined) do in these assays?
Bead autofluor: 2921

What do the screens show for `Cc1cccc(C(=O)O)c1O`?
Bead autofluor: 5787

How did O=C(COC(=O)CCNS(=O)(=O)c1ccc(Cl)cc1)NCc1ccccc1 do in these assays?
Bead autofluor: 4318

What do the screens show for `O=C(OCc1cn([C@H]2CN(Cc3cccs3)[C@@H](c3ccccc3)C[C@@H]2O)nn1)c1ccccc1`?
Bead autofluor: 2761

Results for CCOc1ccc(-c2cc(C(=O)NCc3cc(OC)cc(OC)c3)[nH]n2)c(C)c1 ?
Bead autofluor: 3057

What do the screens show for `COc1ccc(C2C=CC(=O)CC2)c(OC)c1` (centres undefined)?
Bead autofluor: 5857

How did COCCNc1nc(Oc2cccc(NC(C)=O)c2)c2sccc2n1 do in these assays?
Bead autofluor: 3700

Results for O=C(Nc1ccn(CCCNCc2cccc3ccccc23)c(=O)n1)OCc1ccccc1 ?
Bead autofluor: 3597

What do the screens show for `O=C(CSc1ccc(Cl)cc1)NC1CC1`?
Bead autofluor: 3887

How did O=C(NCc1ccccc1Cl)[C@H]1CCCN1C(=O)[C@H]1CCCN1C(=O)c1cccs1 do in these assays?
Bead autofluor: 5019

Results for CCNC(=O)C1(C)CCCN(C(=O)c2ccc3sccc3c2)C1 (centres undefined) ?
Bead autofluor: 3009

Results for Nc1cc(C(=O)N2CCN(c3cccc(Cl)c3)CC2)ccc1N1CC2CC(C1)c1cccc(=O)n1C2 (centres undefined) ?
Bead autofluor: 3735

Results for CC1(c2nnnn2Cc2ccccc2)CCC(=O)N1CC(F)(F)F (centres undefined) ?
Bead autofluor: 5704

What do the screens show for `CC(C)c1ccc(CN2CCC2(C)C(=O)Nc2ccc3c(c2)OCO3)cc1` (centres undefined)?
Bead autofluor: 3959

What do the screens show for `CCN(CC)C(=O)c1nc(-c2cccc3ccccc23)no1`?
Bead autofluor: 2978

What do the screens show for `CNc1cncc(-c2ccc(OC)c(OC)c2)n1`?
Bead autofluor: 3832

Results for NC(c1ccccc1)c1csc(Nc2ccc(C(=O)c3ccccc3)cc2)n1 (centres undefined) ?
Bead autofluor: 3875

Results for Cc1ccccc1S(=O)(=O)NC(=O)C1(C)CCN1C(=O)Cc1ccc(Cl)cc1Cl (centres undefined) ?
Bead autofluor: 3448

How did CCCC1NC(=O)c2cccnc2-n2c1nc1ccccc1c2=O (centres undefined) do in these assays?
Bead autofluor: 3790

What do the screens show for `C[C@@H](NC(=O)[C@H]1O[C@@H](n2cnc3c(N)ncnc32)[C@H](O)[C@@H]1O)c1cccc2ccccc12`?
Bead autofluor: 6190

What do the screens show for `O=S(=O)(c1ccccc1)C(Br)S(=O)(=O)c1ccccc1`?
Bead autofluor: 3092

What do the screens show for `COc1ccc(NC(=O)c2ccc3nc(C)c(N(C)C(=O)CCc4ccccc4)n3c2)cc1OC`?
Bead autofluor: 3265

Results for CCOC(=O)C1=CCC(c2ccccc2)N(S(=O)(=O)c2ccccc2)C1 (centres undefined) ?
Bead autofluor: 5780

Results for Cc1ccc(S(=O)(=O)N2C[C@]3(O)C[C@@H]4C(=O)N(c5ccccc5)C(=O)[C@@H]4C[C@]3(OC(=O)NCC3CCCCC3)C2)cc1 ?
Bead autofluor: 3660

How did CN(C)c1ccc(CNC(=O)/C=C/[C@H]2O[C@@H](n3ccc(=O)[nH]c3=O)[C@H](O)[C@@H]2O)cc1 do in these assays?
Bead autofluor: 5365

Results for C[C@H](CO)N1C[C@H](C)[C@@H](CN(C)C(=O)CN2CCOCC2)Oc2cc(Br)ccc2S1(=O)=O ?
Bead autofluor: 3794

Results for CC(=O)c1ccc(OCC(=O)NC(=O)NC2CCCC2)cc1 ?
Bead autofluor: 3737

How did C[C@@H]1CN([C@@H](C)CO)C(=O)CCCn2nncc2CO[C@H]1CN(C)C(=O)c1ccccc1 do in these assays?
Bead autofluor: 2822

What do the screens show for `CCNC(=O)C1(C)CCCN(C(=O)c2ccc(C(F)(F)F)nc2C)C1` (centres undefined)?
Bead autofluor: 4420

What do the screens show for `CN1CCN(C2CN(Cc3cn(Cc4cccc(Cl)c4)nn3)S(=O)(=O)C2)CC1` (centres undefined)?
Bead autofluor: 4800

Results for NC(=O)C1CCN(C(=O)c2ccc3ncsc3c2)CC1 ?
Bead autofluor: 3450

What do the screens show for `CC1=C(C(=O)N(C(C)C)C(C)C)CC(CC(=O)NCCc2ccccn2)C(=O)N1Cc1ccc(C(C)(C)C)cc1` (centres undefined)?
Bead autofluor: 5820

Results for CC(C)S(=O)(=O)N1CCCC(c2cc(C(=O)NCc3cccnc3)no2)C1 (centres undefined) ?
Bead autofluor: 2914

What do the screens show for `CC(=O)C(=Cc1cccc(C#N)c1)C(=O)c1ccccc1`?
Bead autofluor: 3901

What do the screens show for `Cc1ccccc1C(c1ncccc1C)N(C)C(=O)C1CCN(CCOc2ccc(Cl)cc2Cl)CC1` (centres undefined)?
Bead autofluor: 3080

Results for CCc1nc2c(OCC(=O)N3CCOCC3)cccn2c1N(C)C(=O)COc1ccccc1 ?
Bead autofluor: 3475

Results for NC(c1csc(Nc2ccc(C(=O)NCCCO)cn2)n1)c1ccccc1Cl (centres undefined) ?
Bead autofluor: 3354

What do the screens show for `COc1ccc(-c2ccc(CN3C(C(C)C)C(=O)N(Cc4cn(CCC5OCCCO5)nn4)CCS3(=O)=O)cc2)cn1` (centres undefined)?
Bead autofluor: 3469

How did COc1cccc(-c2nc3nc(C)cc(C)n3c2NC2CCCC2)c1 do in these assays?
Bead autofluor: 5977

How did O=C(NC(c1ccccc1)c1ccsc1)C1CCN(Cc2ccc(Cl)c(Cl)c2)CC1 (centres undefined) do in these assays?
Bead autofluor: 3062

How did COc1ccccc1C(=O)N/C(=C\c1cn(S(=O)(=O)N(C)C)c2ccccc12)C(=O)N1CCN(C)CC1 do in these assays?
Bead autofluor: 3917

What do the screens show for `CC(C)(C)c1ccc2cc(F)cc(F)c2n1`?
Bead autofluor: 5388

How did Cc1ccc(Cc2c(-c3ccc(Br)cc3)nc3cc(C)ccn23)cc1 do in these assays?
Bead autofluor: 4229

Results for CN1CCN(C(=O)c2cc3c(c(-c4cccc(-c5cc6ccccc6o5)c4)n2)[C@H](CCO)N(S(=O)C(C)(C)C)C3)CC1 (some centres undefined) ?
Bead autofluor: 5832

How did Cc1cc(O)ccc1-c1cccc2nccn12 do in these assays?
Bead autofluor: 3631

How did OCCCN1CNC(=S)NC1 do in these assays?
Bead autofluor: 3394

Results for COc1ccc(NC(=O)C[C@H]2C(=O)N(c3ccccc3)C[C@@H]2Cc2ccccc2)cc1 ?
Bead autofluor: 3895

Results for C[C@@H]1CN([C@@H](C)CO)C(=O)c2cc(Br)cnc2O[C@H]1CN(C)C(=O)C1CCCCC1 ?
Bead autofluor: 3723

How did CC1(C(=O)N2CCCCC2)CCN1C(=O)c1ccccc1CCc1ccccc1 (centres undefined) do in these assays?
Bead autofluor: 3415

What do the screens show for `O=C(Nc1ccn(CCCNCC2CCCCC2)c(=O)n1)OCc1ccccc1`?
Bead autofluor: 3807

How did Cc1c(C(=O)NCc2ccco2)sc(=O)n1Cc1ccc(S(C)(=O)=O)cc1 do in these assays?
Bead autofluor: 5242

Results for COc1ccc(NC(=O)c2ccc(-c3c(C)noc3C)c3ccoc23)cc1 ?
Bead autofluor: 3855

Results for O=C(NCCN1CCN(Cc2ccccc2)CC1)c1ccc(CS(=O)(=O)c2c(Cl)cccc2Cl)o1 ?
Bead autofluor: 3893

How did CCOC1=CC2=C(C(=O)C(Cl)=CC2=O)[C@@H]2CN(S(=O)(=O)c3ccc(C)cc3)[C@@H](c3ccccc3)[C@H]12 do in these assays?
Bead autofluor: 3899

Results for CC(=O)Nc1cccc(Oc2nc(NC(C)C)nc3cc(-c4ccccc4)sc23)c1 ?
Bead autofluor: 3644

How did N#CCc1ccc(OCCCN2CCC(C(O)(c3ccccc3)c3ccccc3)CC2)cc1 do in these assays?
Bead autofluor: 4686

What do the screens show for `COc1cccc(CNC(=O)C2(C)CCCN2C(=O)C(C)C)c1` (centres undefined)?
Bead autofluor: 2884

What do the screens show for `CCCCC(=O)N(C)c1c(C)nc2ccc(C(=O)NCCN(C)C)cn12`?
Bead autofluor: 3905

How did CC(C)C[C@H](NC(=O)/C=C/[C@H]1O[C@@H](n2ccc(=O)[nH]c2=O)[C@H](O)[C@@H]1O)C(=O)O do in these assays?
Bead autofluor: 4255

Results for CC(C)n1nnnc1C1c2ccccc2C(=O)N1Cc1ccco1 (centres undefined) ?
Bead autofluor: 5816

Results for CCc1noc(C)c1C(=O)N1CCN(c2cccc(Cl)c2)CC1 ?
Bead autofluor: 3545

Results for CCCCCCNC(=O)O[C@H]1CN(C(=O)OC(C)C)N(C(=O)OC(C)C)[C@@H]2CN(S(=O)(=O)c3ccc(C)cc3)C[C@]12O ?
Bead autofluor: 5004

What do the screens show for `C[C@@H]1COc2cccc(N3CCN(Cc4ccccc4F)CC3)c2S(=O)(=O)N1`?
Bead autofluor: 4148

What do the screens show for `COc1ccc(-c2cc(C(=O)NCc3ccc(F)cc3)[nH]n2)c(C)c1`?
Bead autofluor: 2777

How did CN(Cc1ccc(Cl)c(Cl)c1)C(c1cc2ccccc2o1)c1nnnn1C(C)(C)C (centres undefined) do in these assays?
Bead autofluor: 5909

Results for CN1OC[C@@H]2CN(S(=O)(=O)c3ccccc3)[C@H](c3ccc(N4CCCCC4)cc3)C[C@@H]21 ?
Bead autofluor: 5421

Results for COC[C@@H]1CCCN1[C@H]1CS(=O)(=O)N[C@@H]1COCc1ccccc1 ?
Bead autofluor: 6561

How did Cn1c(-c2ccccc2)c(Sc2ccccc2)c2cc(-c3ccc4cc[nH]c4c3)ccc21 do in these assays?
Bead autofluor: 6170

What do the screens show for `Cc1c(C(=O)NCc2ccc([N+](=O)[O-])cc2)sc(=O)n1Cc1ccc2c(c1)OCO2`?
Bead autofluor: 4011

How did O=C(OCc1cn([C@H]2C[C@H](c3ccc(Cl)cc3)N(C(=O)c3cccs3)C[C@@H]2O)nn1)c1ccccc1 do in these assays?
Bead autofluor: 3556

Results for COc1cccc(CN2CCC2(C)C(=O)Nc2ccc3c(c2)OCO3)c1F (centres undefined) ?
Bead autofluor: 2982

How did COc1ccc(-c2cc(NC=O)c3ncc(-c4ccc(OC)c(OC)c4)n3c2)cc1OC do in these assays?
Bead autofluor: 4074

Results for COc1ccc(-n2nnnc2C(c2ccccc2)N2CCC(n3c(=O)[nH]c4ccccc43)CC2)cc1 (centres undefined) ?
Bead autofluor: 5777

Results for Cc1c(C(=O)NCc2ccccc2C(F)(F)F)sc(=O)n1Cc1ccccc1C#N ?
Bead autofluor: 5085

Results for Cn1nc(C(C)(C)C)cc1N1C(=O)CCC1(C)C(=O)NCc1ccccc1 (centres undefined) ?
Bead autofluor: 4356

Structural class, those above containing fluorine.
Results for OC(c1ccc(Cl)cc1)c1ncc(-c2cccc(C(F)(F)F)c2)[nH]1 (centres undefined) ?
Bead autofluor: 3642

Results for CC(C)NC(=O)Nc1ccc2c(c1)C(=O)N([C@H](C)CO)C[C@H](C)[C@@H](CN(C)Cc1ccc(C(F)(F)F)cc1)OCCCC[C@H](C)O2 ?
Bead autofluor: 4504

How did CC(C)C1C(=O)N(Cc2cn(CCC3OCCO3)nn2)CCS(=O)(=O)N1Cc1ccc(-c2ccccc2C(F)(F)F)cc1 (centres undefined) do in these assays?
Bead autofluor: 5850

How did COc1ccc(C(=O)N2CCCCC2c2cc(C(=O)NCc3ccc(F)cc3)no2)cc1 (centres undefined) do in these assays?
Bead autofluor: 2921

Results for CC1(c2nnnn2Cc2ccccc2)CCC(=O)N1CC(F)(F)F (centres undefined) ?
Bead autofluor: 5704

What do the screens show for `CCNC(=O)C1(C)CCCN(C(=O)c2ccc(C(F)(F)F)nc2C)C1` (centres undefined)?
Bead autofluor: 4420

What do the screens show for `CC(C)(C)c1ccc2cc(F)cc(F)c2n1`?
Bead autofluor: 5388

What do the screens show for `C[C@@H]1COc2cccc(N3CCN(Cc4ccccc4F)CC3)c2S(=O)(=O)N1`?
Bead autofluor: 4148

What do the screens show for `COc1ccc(-c2cc(C(=O)NCc3ccc(F)cc3)[nH]n2)c(C)c1`?
Bead autofluor: 2777

Results for COc1cccc(CN2CCC2(C)C(=O)Nc2ccc3c(c2)OCO3)c1F (centres undefined) ?
Bead autofluor: 2982

Results for Cc1c(C(=O)NCc2ccccc2C(F)(F)F)sc(=O)n1Cc1ccccc1C#N ?
Bead autofluor: 5085

2 compounds picked at random from those above:
Results for Cn1nc(C(C)(C)C)cc1N1C(=O)CCC1(C)C(=O)NCc1ccccc1 (centres undefined) ?
Bead autofluor: 4356

Results for CN1OC[C@@H]2CN(S(=O)(=O)c3ccccc3)[C@H](c3ccc(N4CCCCC4)cc3)C[C@@H]21 ?
Bead autofluor: 5421

Some of the compounds tested; rates above refer to the full screens.
